Source: PubChem
HPGD block – HPGD (human) dehydrogenase inhibition; purified HPGD, NADH fluorescence kinetic, PGE2 substrate; 150,000 compounds, 4.3% hits; Potency, µM, inactives show top-dose activity change, negative = inhibition, usual class: inhibitors; active = well fitted inhibition curve with a large enough effect (not every such curve was filed as active); inconclusive = small, poorly fitted or top-dose-only effect, or another doubt; inactive = no such curve, though single readings can be large or run the other way;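 further: top concentration of the series not given in the record; plate controls included wells without enzyme; inactives centre near -10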
Target sequence (P15428 whole entry, looked up): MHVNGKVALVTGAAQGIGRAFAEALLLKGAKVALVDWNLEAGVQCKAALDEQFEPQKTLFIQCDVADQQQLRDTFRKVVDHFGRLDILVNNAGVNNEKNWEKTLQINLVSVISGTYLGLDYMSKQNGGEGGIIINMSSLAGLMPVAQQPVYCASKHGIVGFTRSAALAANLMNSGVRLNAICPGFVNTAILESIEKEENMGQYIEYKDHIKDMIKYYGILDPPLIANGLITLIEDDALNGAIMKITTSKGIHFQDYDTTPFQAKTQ
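NADH formation kinetics: reaction with 30 uM PGE2 and 1 mM NAD+ (final), 20 nM enzyme, Tris-HCl pH 8 with Tween 20, after 15 min compound preincubation at room temperature. Fluorescence change, last versus first of five reads.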
* marks the source's active call; other numbers are inactive results; ? = inconclusive; & = joins results of further samples. On the % scale 0 is the no-effect control and ±100 the full control effect; potency means the concentration at half of the fitted maximal effect. A portion of the library; the hit share may differ from the screen's.

HPGD block | Structure
4.6% | CCOc1ccccc1OCCN1CCC(Cc2ccccc2)CC1
-12.7% | Cc1ccc(S(=O)(=O)NCCC(=O)NCCN2CCCCCC2)cc1
-5.3% | CC(C)(C)c1ccc(S(=O)(=O)Nc2cccc(C3OCCCO3)c2)cc1
-8.9% | COc1ccc(OC)c(S(=O)(=O)N2CCCC(C)C2)c1 (stereo not drawn)
-7.5% | CCc1cccc(CC)c1NC(=O)C(NS(=O)(=O)c1cccs1)c1ccccc1 (stereo not drawn)
-3.9% | NC1=NC2(CCCCC2)N=C(Nc2ccc(Br)cc2)N1
-13.7% | C=CCn1c(SCC(=O)c2ccc(OC)cc2)nnc1C(C)NC(=O)c1cccs1 (stereo not drawn)
? | CCCCn1c(NC(=O)C2CCCCC2)nc2ccccc21
-16.1% | COC(=O)c1nc(-c2ccccc2)n[nH]1
-2.5% | COc1ccc(NC(=O)c2ccccn2)cc1
-21.0% | COc1cc(OC)c(NC2=NCCCCC2)cc1Cl
-3.6% | CCn1c2ccccc2c2cc(NC(=S)N3CCOCC3)ccc21
? | NC(=O)c1ccccc1NS(=O)(=O)c1ccc2c(c1)OCCO2
-16.6% | COc1cccc(-c2nc(NCCc3c[nH]c4ccc(OC)cc34)c3ccccc3n2)c1
1.4% | COc1ccc(CC(NC(C)=O)C(=O)NC2CCN(C(=O)Nc3ccccc3Cl)CC2)cc1OC (stereo not drawn)
-12.4% | Cc1cccc(-n2c(O)c(C=Nc3ccc(O)cc3)c3ccccc3c2=O)n1
-14.4% | Cc1cccc(NC(=S)NNC(=O)c2ccc3c(c2)OCO3)c1
-5.7% | CCC(CC)NC(=O)Cc1ccc(S(=O)(=O)N2CCOCC2)s1
-10.4% | CC(NS(=O)(=O)c1ccccc1)C(N)=O (stereo not drawn)
-22.0% | O=C(NC(=S)N1CCN(c2nc(-c3ccccc3)cs2)CC1)c1cccnc1
-14.3% | COC(=O)c1cn(NC(=O)Cc2cccc(OC)c2)c(=O)c2ccccc12
-10.7% | Cc1cc(C)cc(NC(=O)CSc2nnc(-c3ccccc3)n2N)c1
? | CC1(C)Cc2c(C#N)c(NCC3CCCO3)nc(-c3ccco3)c2CO1 (stereo not drawn)
-7.2% | COc1ccc(C(=O)NCC(=O)OCC(=O)N2CC(C)CC(C)C2)cc1 (stereo not drawn)
-5.6% | CCOc1cc(NC(=S)NCC2CCCO2)c(OCC)cc1NC(=O)c1cccc(C)c1 (stereo not drawn)
? | Cc1ccsc1/C=N/n1c(-c2cccnc2)n[nH]c1=S
? | O=C(CSc1cnc2ccccc2n1)NC1CCCC1
-10.1% | C[N+]1(CCCCSc2ccc(O)cc2)CCCCC1
0.9% | O=C(O)CC(=O)Nc1cc(Cl)ccc1O
-3.2% | NC(=O)C1(c2ccccc2)CCOCC1
5.7% | O=C(CN1C(=O)c2ccccc2S1(=O)=O)NCc1ccccn1
-17.6% | C=CCN(C(=O)CN1CCOCC1)c1nc(C)c(-c2ccccc2)s1
-2.7% | Cc1cc(OCC(=O)Nn2cnnc2)c(C)cc1Br
-29.4% | C(=N\n1cnnc1)/c1cccc(OCCOc2ccccc2)c1
-12.9% | COc1cccc(C(=O)NC(=S)Nc2cccnc2)c1
-7.9% | NCCC[C@@H](CC(=O)N[C@@H]1CCNC[C@H]1C(=O)N[C@H](CC(=O)N[C@@H](CCC(=O)O)CC(=O)O)Cc1c[nH]c2ccccc12)NC(=O)C[C@H](Cc1ccccc1)NC(=O)[C@@H]1CNCC[C@H]1N
-8.8% | CCCCCc1c(O)nc(SCC(=O)NCC2CCCO2)[nH]c1=O (stereo not drawn)
-3.5% | Cc1ccc(NS(=O)(=O)c2cc(OCC(N)=O)c(C)cc2Cl)cc1C
-8.6% | CC(=O)c1ccc(N2CCN(C(=S)Nc3cccc(F)c3)CC2)cc1
-5.7% | O=C(O)/C=C\C(=O)Nc1ccccc1C#Cc1ccc(Br)cc1
? | Brc1cccc(-c2cnc3n2CCCCC3)c1
-18.2% | Cc1sc(NC(=O)C2C3C=CC(C3)C2C(=O)O)c(C(N)=O)c1-c1ccc(C(C)C)cc1 (stereo not drawn)
-4.9% | CCC1=C2CC[C@H]3C(=O)NC(=O)[C@H]3[C@H]2[C@@]2(C)C(=NCCc3c[nH]c4ccccc34)OC(=O)N2C1=O
-7.7% | COc1ccc(-n2c(SCC(=O)Nc3nccs3)nc3c(c2=O)SC(C)C3)cc1 (stereo not drawn)
-6.1% | Cc1nn(Cc2cccc(C(=O)Nn3cc([N+](=O)[O-])cn3)c2)c(C)c1[N+](=O)[O-]
-7.3% | Cc1cc(C)cc(NCCC#N)c1
-11.6% | COc1ccc(S(=O)(=O)N2CCN(c3ccccn3)CC2)cc1OC
-2.0% | CCC/C(O)=N\S(=O)(=O)c1ccc(N=NN(C)C)cc1
6.31µM* | COCCCNC(=O)c1ccc2c(c1)OCO2
-5.3% | CSc1nnc(-c2cccs2)n1-c1ccccc1
-29.1% | CS(=O)(=O)c1ccccc1-c1nc(-c2ccc(C(F)(F)F)cc2)no1
-10.8%&4.5% | COc1ccc2ccc(=O)oc2c1CC=C(C)C
-10.7% | CCCOc1ccc(Br)cc1/C=N/NC(=O)c1cc(OC)c(OC)c(OC)c1
-8.6% | O=C1C2C3C=CC(C3)C2C(=O)N1/N=C/c1cn(Cc2ccc(F)cc2)c2ccccc12 (stereo not drawn)
1.6% | O=C(CCCN1CCC(O)(c2ccc(Br)cc2)CC1)c1ccc(F)cc1
-12.4% | COc1ccc(CC(NC(C)=O)C(=O)N2CCN(C(=O)N(C(C)C)C(C)C)CC2)cc1 (stereo not drawn)
-8.0% | CC(C)(C)c1ccc(C(=O)NC(=S)NNC(=O)c2cccs2)cc1
0.3% | COc1ccc(NC(=O)CNS(=O)(=O)c2ccc3nc(C)sc3c2)c(OC)c1
-18.5% | Cc1cc(C)c(NC(=O)CSc2nnc(SCC(=O)Nc3c(C)cc(C)cc3C)n2N)c(C)c1
-0.4% | CCOc1ccc(C)cc1S(=O)(=O)n1ccc(C)n1

Grouped by structure: the compounds so far with an aryl thioether with sulfur outside any ring
HPGD block | Structure
-13.7% | C=CCn1c(SCC(=O)c2ccc(OC)cc2)nnc1C(C)NC(=O)c1cccs1 (stereo not drawn)
-10.7% | Cc1cc(C)cc(NC(=O)CSc2nnc(-c3ccccc3)n2N)c1
? | O=C(CSc1cnc2ccccc2n1)NC1CCCC1
-10.1% | C[N+]1(CCCCSc2ccc(O)cc2)CCCCC1
-8.8% | CCCCCc1c(O)nc(SCC(=O)NCC2CCCO2)[nH]c1=O (stereo not drawn)
-7.7% | COc1ccc(-n2c(SCC(=O)Nc3nccs3)nc3c(c2=O)SC(C)C3)cc1 (stereo not drawn)
-5.3% | CSc1nnc(-c2cccs2)n1-c1ccccc1
-18.5% | Cc1cc(C)c(NC(=O)CSc2nnc(SCC(=O)Nc3c(C)cc(C)cc3C)n2N)c(C)c1

Continuation:
HPGD block | Structure
-0.9% | CCN(CC)C(=O)COn1c(SCC(=O)N(CC)CC)nc2ccccc2c1=O
-16.1% | CCNC(=S)NCc1ccc2c(c1)OCO2
-10.5% | COc1cc(C)c(S(=O)(=O)n2ccc(C)n2)cc1C
-9.1% | Cn1ncc2c(Nc3cccc4ccccc34)ncnc21
-14.3% | COc1ccc(S(=O)(=O)NCc2ccc(C(=O)O)cc2)cc1
-13.0% | O=C(NC1CCCCC1)c1ccc(S(=O)(=O)NCc2cccnc2)cc1
-4.4% | Cc1ccc(NC(=S)N(Cc2ccco2)C2CCN(C(C)C)CC2)cc1
-4.1% | COc1ccc(OC)c(NC(=O)C23CCC(C)(C(=O)O2)C3(C)C)c1 (stereo not drawn)
-12.2% | O=C(Nc1nnc(-c2ccccc2Cl)o1)c1ccc(S(=O)(=O)N2CCCCCC2)cc1
? | CCOC(=O)C1CCN(S(=O)(=O)c2ccc3c4c(cccc24)C(=O)N3)CC1
-12.2% | N#CC1=C(N)C2=CCCC[C@H]2[C@H](c2cccc(F)c2)C1(C#N)C#N
0.6% | CN1C(=O)CC(N2CCN(CC(=O)N3CCCC3)CC2)C1=O (stereo not drawn)
-1.5% | O=C(O)c1ccccc1C(=O)Nc1ccccn1
-19.1% | O=C(O)c1cccc(CSc2nc(-c3ccc(Cl)cc3)cc(C(F)(F)F)n2)c1
-5.9% | Cc1ccccc1CN1CCNC1=O
-14.2% | CCCCCCCCc1ccc(-c2ccc(C(=O)O)cc2)cc1
-8.4% | CCCc1nc2c(C)cc(C)cc2c(N)c1CC
-3.3% | C=C(C)C1CC=C(C)/C(=N/Nc2ccccc2[N+](=O)[O-])C1 (stereo not drawn)
-6.2% | CCOC(=O)C1CCN(Cc2ccc(O)c3ncccc23)CC1
-4.0% | COc1ccc(CCN(C(=O)C(F)(F)F)C(C(=O)NC2CCCCC2)c2ccc(C)s2)cc1OC (stereo not drawn)
-12.4% | Cn1c(SCc2ccc(Cl)cc2Cl)nc(C(F)(F)F)cc1=O
-2.0% | CC1=NN(C(=O)COc2ccccc2)C(O)(c2ccccc2)C1 (stereo not drawn)
-4.8% | COc1ccc(CCNC(=O)c2cc(-c3ccc4c(c3)OCO4)on2)cc1OC
-4.4% | COC(=O)C(C)Sc1nc2c(cnn2-c2ccc(C)cc2)c(=O)[nH]1 (stereo not drawn)
-21.9% | COc1ccc2c(c1)OC(=O)CC2c1cc(OC)c(OC)c(OC)c1 (stereo not drawn)
-5.9% | COC(CN(C(=O)CCl)C(C(=O)NC1CCCCC1)c1ccc(C)cc1)OC (stereo not drawn)
-7.3% | CCc1nc(N(CC)CC)c2oc3ccccc3c2n1
-7.2% | CCOc1ccc(S(=O)(=O)Nc2ccc(S(=O)(=O)N3CCCC3)cc2)cc1
1.6% | Cc1sc(/N=C/c2ccccc2O)c(C#N)c1C
-8.6% | CCCCn1c(-c2ccccc2)cnc1SCC(=O)NCCc1ccc(OC)c(OC)c1
? | O=C(CSc1ccc2nnc(-c3ccc(F)cc3)n2n1)NCC1CCCO1 (stereo not drawn)
-7.9% | Cc1cccc(C)c1Nc1nnc(SCC(=O)NC2CCS(=O)(=O)C2)s1 (stereo not drawn)
? | Cc1ccsc1C1C2=C(CC(C)(C)CC2=O)Nc2ncnn21 (stereo not drawn)
-4.0% | Cc1cccc(C)c1NC(=O)CSc1nnc(-c2ccco2)n1N
-0.1% | Cc1cc(C(=O)N(C2CCCCC2)C2CCCCC2)no1
-7.6% | O=C(CCS(=O)(=O)c1ccc(Br)s1)NC1CCCC1
7.94µM* | CCC1(C)Cc2c(sc(NC(=S)NC(=O)c3ccccc3)c2C#N)CO1 (stereo not drawn)
-7.6% | Cc1cc(NC(=O)c2ccc3c(c2)OCO3)no1
-13.9% | COc1cc2c(-c3ccccc3O)nc3c(c(C)nn3-c3ccccc3)c2cc1OC
-11.2% | CC12CC(NC(=O)N1c1cccc(C(=O)N3CCN(c4ccccc4F)CC3)c1)c1ccccc1O2 (stereo not drawn)
-7.6% | CC1(C)CC2c3cccc(C(=O)O)c3C(=O)N2c2c1ccc1ccccc21 (stereo not drawn)
? | O=C(O)c1ccc(-c2ccc(-c3ccccc3)cc2)o1
1.0% | CCCc1nnc(NC(=O)CCN2C(=O)c3ccccc3C2=O)s1
22.4µM* | COc1ccc(-n2c(SCC(N)=O)nnc2-c2ccc(NS(=O)(=O)c3ccc(C)cc3)cc2)cc1
-6.4% | CC(C)OC(=O)c1cccc(C(=O)O)n1
-15.4% | Cn1nnnc1SCCNCc1ccc(Cl)cc1
-16.7% | CCCNC(=O)NC(=O)COC(=O)c1cccc(NS(=O)(=O)c2ccc(F)c(F)c2)c1
11.2µM* | O=C(OCn1nnc2ccccc2c1=O)C1CCCCC1
? | CC1(C)Oc2ccc(NC(=O)c3ccco3)cc2O1
-7.7% | CCc1ccccc1N(CC(=O)NCCSCc1ccco1)S(C)(=O)=O
-18.7% | Cc1cc2c(cc1C)NC(c1c(C)n(C)n(-c3ccccc3)c1=O)C1=C(CC(C)(C)CC1=O)N2 (stereo not drawn)
28.2µM* | N#CCCN1CCN(C(=S)c2ccc(-c3cccc(Cl)c3)o2)CC1
-11.3% | CCOC(=O)N1CCC(=NNC(=O)COc2ccc(OC)cc2)CC1
-12.5% | COc1cc(=O)n2c(-c3ccccc3)csc2n1
-10.5% | N#Cc1cccc2cnccc12
-5.7% | Cc1ccc(OCC(=O)OCCN2C(=O)c3ccccc3C2=O)cc1C
-18.3% | CCOC(=O)N1CCN(C(=O)c2cnn3c(C(F)F)cc(-c4ccc(C)cc4)nc23)CC1
-6.6% | CCOc1ccccc1NC(=O)CCn1c(=O)oc2ccccc21
-9.3% | O=C(CCCn1c(=O)[nH]c2ccsc2c1=O)N1CCN(c2ccccn2)CC1
-0.1% | COc1ccc(OC)c(C(c2nnnn2Cc2ccccc2)N2CCN(C)CC2)c1 (stereo not drawn)

A second format for part of the listing above.
smiles | HPGD block
Cc1cccc(C)c1NC(=O)CSc1nnc(-c2ccco2)n1N | -4.0%
Cc1cc(C(=O)N(C2CCCCC2)C2CCCCC2)no1 | -0.1%

Continuation.
HPGD block | Structure
-0.5%&-5.1% | COCC1=Cc2cc3c(cc2C(C(C(=O)OC)C(=O)OC)N1C(=O)OC)OCO3 (stereo not drawn)
-9.1% | O=C(Oc1ccccc1)N1CCC2(CCCN(c3ccccc3)C2)CC1
-15.9% | COc1ccc(CNC(=O)c2cc(-c3ccc(OC)c(OC)c3)on2)cc1
-8.7% | O=C(c1ccco1)N1CCC(c2ccccc2)C1 (stereo not drawn)
-9.3% | Cn1c(SCC(=O)NCc2ccco2)nnc1-c1cccs1
-7.3% | COC(=O)c1ccc(/C=N/n2cnnc2)cc1
? | CCCC(=O)Nc1ccc2oc(-c3cccnc3)nc2c1
? | O=C(NCCCN1CCCC1=O)c1ccccc1NS(=O)(=O)c1ccc(Br)cc1
-6.4% | Cc1ccc(Nc2nc(CSc3nnc(-c4cccs4)o3)cs2)cc1
